# Compound activity deposited in PubChem by Broad Institute.
# A1 apoptosis 2: blocks A1, raising caspase activity; MEF A1-2A-BIM cells, caspase-Glo luminescence, 3 h; percent of clofoctol response, DMSO zero; caspase activation, % (concentration not given with the values); 24,000 tested, under 10 active; in the data active = caspase activation above about 5.9%;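 note: wells of about 30 µL received 50 nL stock; the first replicate is given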
#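 Material: A1-2A-BIM-expressing MEF cells. Buffer or medium: RPMI-1640 plus 10% FBS. Incubation: cells settled overnight, compound exposure 3 h at 37 °C, 5% CO2. Signal: Caspase-Glo 3/7 luminescence, 1 h at room temperature.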
# Starred values were filed as active, the others as inactive. An excerpt (hit frequency here may not be typical).
Structure	A1 apoptosis 2
C[C@@H]1CCCCO[C@H](CN(C)C(=O)CCC(F)(F)F)[C@H](C)CN([C@H](C)CO)C(=O)c2cc(NS(=O)(=O)c3ccc(Cl)cc3)ccc2O1	0.6
C[C@H](CO)N1C[C@H](C)[C@H](CN(C)S(=O)(=O)c2ccccc2)Oc2ccc(N(C)C)cc2C1=O	-0.4
Cc1ccc(S(=O)(=O)N(C)C[C@@H]2OCCCC[C@H](C)Oc3ccc(NC(=O)NC4CCCCC4)cc3C(=O)N([C@@H](C)CO)C[C@@H]2C)cc1	-1.0
COc1ccc(NC(=O)Nc2ccc3c(c2)CC(=O)N([C@H](C)CO)C[C@H](C)[C@H](CN(C)Cc2ccc(C(=O)O)cc2)O3)cc1	1.1
COC(=O)[C@]1(CO)N=C(c2ccc(OCCCO)cc2)O[C@@H]1c1ccccc1N=[N+]=[N-]	0.6
C[C@H](CO)N1C[C@H](C)[C@H](CN(C)Cc2ccc(C(=O)Nc3ccccc3N)cc2)OCCCC[C@H](C)Oc2ccc(NC(=O)C3CCCCC3)cc2C1=O	-0.7
C[C@@H]1CN([C@H](C)CO)C(=O)c2cc(NC(=O)NC3CCCCC3)ccc2O[C@@H](C)CCCCO[C@H]1CN(C)C(=O)Nc1ccc(C(F)(F)F)cc1	1.7
C[C@H]1CN([C@@H](C)CO)C(=O)c2cccc(NS(=O)(=O)c3ccccc3)c2O[C@@H]1CN(C)C(=O)Nc1ccc2c(c1)OCO2	0.8
Cc1ccc(S(=O)(=O)N(C)C[C@@H]2Oc3ncc(C#Cc4cccc(F)c4)cc3C(=O)N([C@H](C)CO)C[C@@H]2C)cc1	2.0
COc1ccc(CN(C)C[C@@H]2OCCCC[C@H](C)Oc3ccc(NS(=O)(=O)c4ccc(C)cc4)cc3C(=O)N([C@@H](C)CO)C[C@@H]2C)cc1	-1.1
C[C@H]1CN([C@@H](C)CO)C(=O)c2cccc(NC(=O)C3CCOCC3)c2O[C@@H]1CN(C)Cc1ccc2c(c1)OCO2	-0.1
COc1ccc(CN(C)C[C@@H]2Oc3ccc(NC(=O)Nc4ccc(OC)cc4)cc3C(=O)N([C@H](C)CO)C[C@@H]2C)cc1	1.1
O=C(NCc1ccccc1)C1=C[C@H](c2coc3ccccc3c2=O)C[C@H](OCc2ccc(CO)cc2)O1	0.2
C[C@@H]1CN([C@@H](C)CO)C(=O)c2cc(NC(=O)CCC(F)(F)F)ccc2O[C@@H](C)CCCCO[C@H]1CN(C)C(=O)CCC(F)(F)F	-0.5
C[C@H]1CN([C@@H](C)CO)C(=O)c2cc(NS(=O)(=O)c3cn(C)cn3)ccc2O[C@H]1CN(C)Cc1ccc(C(F)(F)F)cc1	-0.6
C[C@H]1CN([C@@H](C)CO)C(=O)c2cc(NS(=O)(=O)c3cccs3)ccc2O[C@H]1CN(C)Cc1ccncc1	0.2
CC(C)NC(=O)N(C)C[C@H]1Oc2ccc(NC(=O)Cc3ccccc3)cc2CC(=O)N([C@@H](C)CO)C[C@H]1C	0.9
Cc1noc(C)c1NC(=O)N(C)C[C@@H]1Oc2ccc(NC(=O)Cn3cnnn3)cc2CC(=O)N([C@H](C)CO)C[C@@H]1C	-0.2
Cc1ccc(S(=O)(=O)Nc2ccc3c(c2)C(=O)N([C@@H](C)CO)C[C@@H](C)[C@H](CN(C)C(=O)Cc2ccccc2)OCCCC[C@@H](C)O3)cc1	-0.9
C[C@H](CO)N1C[C@H](C)[C@H](CN(C)S(=O)(=O)c2ccc(F)cc2)Oc2ccc(NS(=O)(=O)c3ccc(F)cc3)cc2CC1=O	-0.8
Cc1noc(C)c1S(=O)(=O)Nc1ccc2c(c1)C(=O)N([C@H](C)CO)C[C@H](C)[C@@H](CN(C)Cc1ccc(C(=O)O)cc1)OCCCC[C@H](C)O2	-0.1
C[C@@H]1CCCCO[C@H](CN(C)S(=O)(=O)c2ccccc2)[C@H](C)CN([C@@H](C)CO)C(=O)c2cc(NC(=O)c3ccncc3)ccc2O1	1.2
CC(C)NC(=O)Nc1cccc2c1O[C@@H](CN(C)Cc1ccc(C(F)(F)F)cc1)[C@H](C)CN([C@@H](C)CO)C2=O	-0.7
C[C@H](CO)N1C[C@H](C)[C@@H](CN(C)Cc2ccc(C(F)(F)F)cc2)Oc2ccc(NC(=O)CCN3CCOCC3)cc2C1=O	-0.7

# Filtered by structure, the compounds so far containing a CF3 group (six)
Structure	A1 apoptosis 2
C[C@@H]1CCCCO[C@H](CN(C)C(=O)CCC(F)(F)F)[C@H](C)CN([C@H](C)CO)C(=O)c2cc(NS(=O)(=O)c3ccc(Cl)cc3)ccc2O1	0.6
C[C@@H]1CN([C@H](C)CO)C(=O)c2cc(NC(=O)NC3CCCCC3)ccc2O[C@@H](C)CCCCO[C@H]1CN(C)C(=O)Nc1ccc(C(F)(F)F)cc1	1.7
C[C@@H]1CN([C@@H](C)CO)C(=O)c2cc(NC(=O)CCC(F)(F)F)ccc2O[C@@H](C)CCCCO[C@H]1CN(C)C(=O)CCC(F)(F)F	-0.5
C[C@H]1CN([C@@H](C)CO)C(=O)c2cc(NS(=O)(=O)c3cn(C)cn3)ccc2O[C@H]1CN(C)Cc1ccc(C(F)(F)F)cc1	-0.6
CC(C)NC(=O)Nc1cccc2c1O[C@@H](CN(C)Cc1ccc(C(F)(F)F)cc1)[C@H](C)CN([C@@H](C)CO)C2=O	-0.7
C[C@H](CO)N1C[C@H](C)[C@@H](CN(C)Cc2ccc(C(F)(F)F)cc2)Oc2ccc(NC(=O)CCN3CCOCC3)cc2C1=O	-0.7

# (cont.)
Structure	A1 apoptosis 2
Cc1ccc(S(=O)(=O)Nc2cccc3c2O[C@@H](CN(C)Cc2ccc(-c4ccccc4)cc2)[C@H](C)CN([C@H](C)CO)C3=O)cc1	-0.4
C[C@H](CO)N1C[C@H](C)[C@@H](CN(C)S(=O)(=O)c2ccccc2)OCCCC[C@H](C)Oc2ccc(NC(=O)c3ccccc3)cc2C1=O	0.8
CNC[C@@H]1Oc2ccc(NC(=O)C3CCCCC3)cc2C(=O)N([C@H](C)CO)C[C@@H]1C	0.2
C[C@@H]1CN([C@H](C)CO)C(=O)c2cccc(NC(=O)Nc3ccc(C(F)(F)F)cc3)c2O[C@@H]1CN(C)C	-0.9
C[C@H](CO)N1C[C@H](C)[C@@H](CN(C)S(=O)(=O)c2ccccc2)Oc2ccc(NC(=O)Nc3ccc(F)cc3)cc2C1=O	1.5
Cc1cc(C)cc(N2C(=O)CSC2c2cccc([N+](=O)[O-])c2)c1 (stereo unspecified)	-0.6
C[C@H](CO)N1C[C@H](C)[C@@H](CN(C)CC2CC2)Oc2ccc(NS(=O)(=O)c3ccccc3)cc2CC1=O	0.0
C[C@H]1CN([C@@H](C)CO)C(=O)Cc2cc(NS(=O)(=O)c3cccs3)ccc2O[C@H]1CN(C)Cc1ccc2c(c1)OCO2	-0.2
Cc1noc(C)c1NC(=O)Nc1ccc2c(c1)CC(=O)N([C@@H](C)CO)C[C@@H](C)[C@@H](CN(C)CC1CC1)O2	0.8
C[C@H](CO)N1C[C@H](C)[C@@H](CN(C)C(=O)Nc2ccccc2)Oc2ccc(NS(=O)(=O)c3cccs3)cc2C1=O	0.3
CC(C)NC(=O)N(C)C[C@H]1Oc2ccc(NC(=O)CCCN(C)C)cc2C(=O)N([C@@H](C)CO)C[C@@H]1C	0.0
CCO[C@@H]1OC(C(=O)N2CCOCC2)=C[C@H](c2ccccc2)[C@H]1CCCO	0.5
COc1ccc(CN(C)C[C@@H]2Oc3c(NC(=O)Nc4c(C)noc4C)cccc3C(=O)N([C@@H](C)CO)C[C@@H]2C)cc1	-0.8
COc1ccc(S(=O)(=O)Nc2ccc3c(c2)C(=O)N([C@@H](C)CO)C[C@H](C)[C@@H](CN(C)Cc2ccccc2)OCCCC[C@H](C)O3)cc1	2.8
C[C@H]1CN([C@@H](C)CO)C(=O)Cc2cc(NC(=O)C3CC3)ccc2O[C@H]1CN(C)S(=O)(=O)c1ccc(F)cc1	0.9
Cc1ccc(S(=O)(=O)Nc2ccc3c(c2)C(=O)N([C@@H](C)CO)C[C@H](C)[C@@H](CN(C)Cc2ccc(C(=O)Nc4ccccc4N)cc2)OCCCC[C@@H](C)O3)cc1	-0.8
C[C@H]1CN([C@@H](C)CO)C(=O)c2cccc(NC(=O)c3cnccn3)c2O[C@@H]1CN(C)S(=O)(=O)c1ccc(Cl)cc1	-0.6
COc1cc2c(cc1OC)CN(C(=O)[C@H]1[C@@H]3C(=O)O[C@@H](c4ccccc4)[C@@H](c4ccccc4)N3[C@@H](c3ccc(OCCO)cc3)[C@]13C(=O)Nc1ccccc13)CC2	0.9
CC(C)NC(=O)N(C)C[C@H]1OCCCC[C@H](C)Oc2ccc(NC(=O)CCC(F)(F)F)cc2C(=O)N([C@H](C)CO)C[C@@H]1C	-0.9
CC(C)NC(=O)Nc1ccc2c(c1)C(=O)N([C@@H](C)CO)C[C@@H](C)[C@H](CN(C)C(=O)NC1CCCCC1)OCCCC[C@H](C)O2	0.0
COc1ccc(S(=O)(=O)N(C)C[C@@H]2Oc3ccc(NC(=O)CCCCCC(=O)Nc4ccccc4N)cc3C(=O)N([C@H](C)CO)C[C@@H]2C)cc1	1.2
C[C@H]1CN([C@@H](C)CO)C(=O)CCCn2cc(nn2)CO[C@@H]1CN(C)S(=O)(=O)c1ccc2ccccc2c1	1.1
C[C@@H]1CN([C@@H](C)CO)C(=O)Cc2cc(NC(=O)CCN3CCOCC3)ccc2O[C@H]1CN(C)C(=O)Nc1cccc2ccccc12	-0.7
C[C@H]1CN([C@@H](C)CO)C(=O)c2cccc(NS(=O)(=O)c3ccccc3)c2O[C@@H]1CN(C)Cc1ccc(Oc2ccccc2)cc1	-0.9
Cc1cc(C(=O)Nc2cccc3c2O[C@@H](CN(C)CC2CC2)[C@H](C)CN([C@H](C)CO)C3=O)n(C)n1	-0.8
C[C@H](CO)N1C[C@H](C)[C@H](CN(C)Cc2ccc(-c3ccccc3)cc2)Oc2ccc(NS(=O)(=O)c3ccc(Cl)cc3)cc2CC1=O	0.1
COc1ccc(CN(C)C[C@H]2Oc3c(NC(=O)C4CCCCC4)cccc3C(=O)N([C@@H](C)CO)C[C@H]2C)cc1	0.9
C[C@@H]1CN([C@@H](C)CO)C(=O)c2cc(NC(=O)CCN3CCOCC3)ccc2O[C@@H]1CN(C)Cc1ccc(Cl)c(Cl)c1	0.4
C[C@H]1CCCCO[C@H](CN(C)S(=O)(=O)c2ccc(F)cc2)[C@@H](C)CN([C@@H](C)CO)C(=O)c2cc(NC(=O)Nc3ccc(C(F)(F)F)cc3)ccc2O1	-1.9
C[C@@H]1CN([C@@H](C)CO)C(=O)c2cc(NC(=O)CCN3CCOCC3)ccc2O[C@H]1CN(C)C(=O)Nc1ccccc1	-0.6
C[C@H]1CN([C@@H](C)CO)C(=O)c2cc(NC(=O)Nc3ccc(F)cc3)ccc2O[C@H]1CN(C)C(=O)Nc1ccc(F)cc1	-1.6
C[C@@H]1CN([C@@H](C)CO)C(=O)Cc2cc(NC(=O)C3CC3)ccc2O[C@@H]1CN(C)C(=O)NC1CCCCC1	-0.2
CNC[C@H]1Oc2ccc(NC(=O)NC3CCCCC3)cc2C(=O)N([C@@H](C)CO)C[C@@H]1C	0.4
C[C@@H]1CN([C@H](C)CO)C(=O)c2cc(NS(C)(=O)=O)ccc2O[C@@H]1CN(C)C(=O)NC1CCCCC1	0.4
C[C@H](CO)N1C[C@H](C)[C@H](CN(C)Cc2ccncc2)Oc2ccc(NC(=O)C3CC3)cc2C1=O	-1.1
CC(C)=CCC[C@@H](C)C/C=N/NC(=O)CCCCCC(=O)NO	0.0
Cc1ccc(S(=O)(=O)N(C)C[C@@H]2Oc3c(NC(=O)CCCCCC(=O)Nc4ccccc4N)cccc3C(=O)N([C@H](C)CO)C[C@@H]2C)cc1	-0.5
Cc1noc(C)c1NC(=O)N(C)C[C@@H]1Oc2ccc(NC(=O)C3CC3)cc2CC(=O)N([C@@H](C)CO)C[C@@H]1C	0.0
C[C@@H]1CN([C@@H](C)CO)C(=O)Cc2cc(NC(=O)CCCN(C)C)ccc2O[C@H]1CN(C)Cc1ccncc1	0.4
C[C@H]1CN([C@@H](C)CO)C(=O)c2cc(NC(=O)CCCN(C)C)ccc2O[C@@H]1CN(C)S(=O)(=O)c1ccccc1	-0.3
[N-]=[N+]=Nc1ccccc1C[C@]1(C(=O)NCCN2CCOCC2)N=C(c2ccc(OCCCO)cc2)O[C@H]1c1ccccc1N=[N+]=[N-]	-0.2
C[C@H]1CN([C@@H](C)CO)C(=O)Cc2cc(NC(=O)C3CCCCC3)ccc2O[C@@H]1CN(C)C(=O)NC1CCCCC1	0.2
C[C@H](CO)N1C[C@H](C)[C@H](CN(C)C(=O)Nc2ccc(C(F)(F)F)cc2)OCCCC[C@H](C)Oc2ccc(NS(C)(=O)=O)cc2C1=O	-0.4
COc1ccc(S(=O)(=O)Nc2ccc3c(c2)C(=O)N([C@@H](C)CO)C[C@@H](C)[C@H](CN(C)Cc2ccc4c(c2)OCO4)OCCCC[C@H](C)O3)cc1	1.1
C[C@@H]1CN([C@@H](C)CO)C(=O)Cc2cc(NC(=O)Nc3ccc4c(c3)OCO4)ccc2O[C@@H]1CN(C)C(=O)NC1CCCCC1	0.6
Cc1noc(C)c1S(=O)(=O)N(C)C[C@H]1Oc2c(NC(=O)c3ccc(-c4nccs4)cc3)cccc2C(=O)N([C@H](C)CO)C[C@H]1C	-0.7
CNC[C@@H]1Oc2c(NC(=O)Nc3ccc(C(F)(F)F)cc3)cccc2C(=O)N([C@H](C)CO)C[C@@H]1C	-0.1

# Taken from above.
# Under A1 apoptosis 2, C[C@@H]1CN([C@@H](C)CO)C(=O)Cc2cc(NC(=O)Nc3ccc4c(c3)OCO4)ccc2O[C@@H]1CN(C)C(=O)NC1CCCCC1 has the entry 0.6
# Under A1 apoptosis 2, C[C@H](CO)N1C[C@H](C)[C@H](CN(C)C(=O)Nc2ccc(C(F)(F)F)cc2)OCCCC[C@H](C)Oc2ccc(NS(C)(=O)=O)cc2C1=O has the entry -0.4
